Choline anaer gr: inhibitors of anaerobic choline-dependent gram-negative bacterial growth; Gram-negative bacterium anaerobic choline minimal medium, absorbance growth; stronger effect = lower value; many inactives read as strong as hits in the columns shown; calls only; 55,000 compounds, 0.2% hits;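 active = growth z-score on choline under -2 at 7 or 20 h with little or no fall on glycerol, limits in tiers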;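 also: stock transfer was 300 nL into about 50 µL; the organism is E. coli; final concentration not given here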
Choline anaer gr early: recorded beside Choline anaer gr, whose call it bears; z-score; measured here: choline growth z-score, timepoint 1;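 score of optical density at 7 h as mean of two plates; lower means less growth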
* = called active by the depositor; i = inactive. A portion of the library; rates above refer to the full screens.

SMILES	Choline anaer gr	Choline anaer gr early
CNC(=O)Cn1c(=O)c(C)nc2cc(C)c(C)cc21	i	-0.45
CCC(C)NC(=O)c1cc2c(Cl)ccc3c2n1CCO3 (stereo not given)	i	-0.65
Cc1ccc(-c2n[nH]c3c2cnc2ccc(F)cc23)cc1	i	0.82
CC(C)(C)C(=O)N1CCN(c2nc3ncccc3o2)CC1	i	-0.02
Cc1ccc(-c2nn3c(=O)cc(CNC(=O)Nc4cc(C)ccc4C)nc3s2)cc1	i	0.71
Cc1oc2ncnc(N3CCC(C(=O)NCc4ccccc4)CC3)c2c1C	i	-0.67
O=c1c2cccnc2n(Cc2cccc(F)c2)c(=O)n1Cc1ccc(F)cc1	i	1.4
CC(C)NC(=O)c1ccc2cn[nH]c2c1	i	-0.68
O=C(NCCCN1CCCC1=O)c1ccc(CN2C(=O)CCn3nc(-c4ccccc4)cc32)cc1	i	0.75
Cc1nn(-c2ccc(F)cc2)c2c1c(=O)c(C(=O)N1CCC(N3CCCCC3)CC1)cn2C	i	0.35
O=C(Cn1ccn2nc(-c3ccccc3)cc2c1=O)NC1CCCC1	i	0.34
COc1ccc(-c2noc(Cn3ccn4nc(-c5ccc(C)cc5)cc4c3=O)n2)cc1OC	i	0.93
Cn1c(=O)c2sccc2n2c(SCc3ccc(F)cc3Cl)nnc12	i	0.06
CCC(=O)Nc1ccc(C)cc1-c1nnc(SC(C)C(=O)Nc2ccc(C)cc2C)[nH]c1=O (stereo not given)	i	-0.64
COc1ccc(CCn2nnnc2C2(c3ccc(C)cc3)CC2)cc1	i	-0.66
CS(=O)(=O)N1CCCc2cc(C(=O)NCc3ccncc3)ccc21	i	-0.69
CCSc1nnc(-c2nn(C)c3c2CN(S(=O)(=O)c2cc(F)ccc2C)CC3)n1CC	i	-0.82
Cn1nnnc1SCCNCc1ccc(OCc2ccc(Cl)cc2)cc1	i	-1.8
O=C(Nc1ccc(Cl)cc1)N1CCC(n2cnc3cccnc32)CC1	i	-1.1
Cc1noc(C)c1C(=O)N1CCCC1c1ccc(F)cc1 (stereo not given)	i	-0.48
Cc1cc(N2CCCC2)nc2ccc(NC(=O)CC3CCCCC3)cc12	i	-1.2
Cc1ccc2ncnc(N(CC(C)C)CC(C)C)c2c1	i	-3
O=C(Cn1ncc2c(N3CCCCC3)ncnc21)NCCC1=CCCCC1	i	0.56
CCOc1ccc(OCC)c(S(=O)(=O)N2CCN(c3nc(C)cc(N4CCN(C)CC4)n3)CC2)c1	i	0.59
C=CCn1c(C2CC(=O)N(C)C2)nc2ccccc21 (stereo not given)	i	0.23
O=C(CN1C(=O)C2CCCCN2c2ccc(S(=O)(=O)N3CCCCC3)cc21)NC1CCCC1 (stereo not given)	i	-0.48
CCOc1ccccc1N(Cc1nc2nc(C)cc(=O)n2[nH]1)S(=O)(=O)c1ccccc1	i	-1.5
COc1ccccc1Oc1cc(-c2cccc(C(=O)NCc3ccc4c(c3)OCO4)c2)ncn1	i	2.2
Cc1ncc(-c2ccc(S(=O)(=O)Nc3cccnc3)cc2)o1	i	-0.15
CCn1c(=O)c(N2CCCC(C(=O)N3CCC(N4CCCCC4)CC3)C2)nc2cccnc21 (stereo not given)	i	0.65
CCN(CC)c1c(S(=O)(=O)c2ccccc2)cnc2ccc(OC)cc12	i	0.3
Cn1c(SCC(N)=O)nc2c(-c3ccccc3)csc2c1=O	i	2.3
CCOC(=O)c1cnn(-c2cc(C(C)(C)C)nc3c(-c4ccc(F)cc4)c(C)nn23)c1N	i	0.47
O=c1c(=O)n(-c2ccccc2)ccn1Cc1ccc(F)cc1	i	-0.57
COc1cccc(Cn2nc3c(S(=O)(=O)N4CCOCC4)cccn3c2=O)c1	i	-2.6
CCc1ccc(-c2nc3ccccn3c2CNCc2ccccc2F)cc1	i	-1.1
COc1ccc(NC(=O)N2CCN(c3nc4ccccc4n4cccc34)CC2)cc1	i	0.95
CCn1c(=O)c(-c2noc(C(=O)NCc3cccnc3)n2)nn(-c2ccccc2)c1=O	i	0.11
O=S(=O)(c1ccc(F)cc1)N1CCC(c2noc(-c3ccccc3)n2)CC1	i	0.14
CN(C)S(=O)(=O)c1ccc(-c2nnc(C(=O)NCc3cc(F)cc(F)c3)o2)cc1	i	-1.3

5 records drawn at random from those above, as already listed:
SMILES	Choline anaer gr	Choline anaer gr early
CCN(CC)c1c(S(=O)(=O)c2ccccc2)cnc2ccc(OC)cc12	i	0.3
CN(C)S(=O)(=O)c1ccc(-c2nnc(C(=O)NCc3cc(F)cc(F)c3)o2)cc1	i	-1.3
CCn1c(=O)c(-c2noc(C(=O)NCc3cccnc3)n2)nn(-c2ccccc2)c1=O	i	0.11
O=c1c(=O)n(-c2ccccc2)ccn1Cc1ccc(F)cc1	i	-0.57
COc1cccc(Cn2nc3c(S(=O)(=O)N4CCOCC4)cccn3c2=O)c1	i	-2.6

Further entries.
SMILES	Choline anaer gr	Choline anaer gr early
Cc1ccc(CCNC(=O)CN2CCN(Cc3ccc(F)cc3Cl)C2=O)cc1	i	1.3
Cc1nn(-c2ccccc2)c(C)c1CCc1nnc2sc(-c3ccc(N(C)C)cc3)nn12	i	1.2
Cc1nnc(-c2cc3ccccc3n2Cc2ccc(Br)cc2)o1	i	0.36
CCOC(=O)c1c(C)oc2ccc(S(=O)(=O)Nc3cc4c(cc3N3CCCCC3)n(C)c(=O)n4C)cc12	i	-0.77
NS(=O)(=O)c1ccc(NC(=O)C2CCN(c3ccc(=O)n(-c4ccc(F)cc4)n3)CC2)cc1	i	0.99
Cc1nn(C)c(C)c1S(=O)(=O)N1CCN(C(=O)c2cc3cc(Cl)ccc3[nH]2)CC1	i	-0.05
CCC(C)NC(=O)c1cnc2scc(C)n2c1=O (stereo not given)	i	-1.3
c1ccc(CCNc2ccc(-c3nc(-c4ccccc4)no3)nn2)cc1	i	-0.01
O=C(Nc1ccc(CCc2nc3ccccc3n2-c2ccccc2)cc1)c1cnccn1	i	-0.27
COC(=O)c1sccc1NC(=O)CSc1nccn2nc(-c3ccc(Cl)cc3)cc12	i	-1.2
CCOc1ccc(-c2nonc2NC(=O)C(C)Oc2ccc(CC)cc2)cc1C (stereo not given)	i	-0.22
CC1(C)CC(=O)C2=C(C1)Nc1ccccc1NC2c1ccccc1Cl (stereo not given)	i	0.67
Cc1cc(-n2c(C)nc3ccccc3c2=O)ccc1NC(=O)c1cc(Cl)ccc1F	i	0.74
CCc1ccccc1NS(=O)(=O)c1cc2c3c(c1)CCN3C(=O)CC2	i	-1.1
CCCn1c(CCc2ccc(NS(=O)(=O)c3c(C)noc3C)cc2)nc2ccccc21	i	-1.4
O=C(NC1CCCCC1)C1CCCN(c2ncc(-c3ccccc3)cn2)C1 (stereo not given)	i	0.29
CCOC(=O)c1c(C)n(-c2ccc(C)cc2)c2ccc(OCC(O)CNc3ccc(OC)cc3)cc12 (stereo not given)	i	1.6
Cc1ccc(NC(=O)CCc2nc(CSc3nc(-c4ccccc4)cs3)no2)cc1Cl	i	2.3
COc1ccc(NC(=O)Cn2nc(-c3ccccc3)c3cc(Cl)ccc32)c(OC)c1	i	-0.57
Cc1nc2ccccc2c2oc(C(=O)NCC3COc4ccccc4O3)cc12 (stereo not given)	i	0.58

Reprinted from the part before: 7 compounds, then new ones.
SMILES	Choline anaer gr	Choline anaer gr early
CCc1ccccc1NS(=O)(=O)c1cc2c3c(c1)CCN3C(=O)CC2	i	-1.1
CCCn1c(CCc2ccc(NS(=O)(=O)c3c(C)noc3C)cc2)nc2ccccc21	i	-1.4
O=C(NC1CCCCC1)C1CCCN(c2ncc(-c3ccccc3)cn2)C1 (stereo not given)	i	0.29
CCOC(=O)c1c(C)n(-c2ccc(C)cc2)c2ccc(OCC(O)CNc3ccc(OC)cc3)cc12 (stereo not given)	i	1.6
Cc1ccc(NC(=O)CCc2nc(CSc3nc(-c4ccccc4)cs3)no2)cc1Cl	i	2.3
COc1ccc(NC(=O)Cn2nc(-c3ccccc3)c3cc(Cl)ccc32)c(OC)c1	i	-0.57
Cc1nc2ccccc2c2oc(C(=O)NCC3COc4ccccc4O3)cc12 (stereo not given)	i	0.58
CC(C)CCNC(=O)C1CCCN(c2ncnc3c2oc2ccccc23)C1 (stereo not given)	i	0.36
O=C(NCCn1c(-c2ccncc2)nc2cccnc21)c1ccc(Cl)cc1	i	-0.68
Clc1ccccc1-c1nnc(-c2ccccc2Cl)o1	i	0.83
O=C(Cn1c(=O)c(=O)n(Cc2ccncc2)c2ncccc21)NCc1ccc2c(c1)OCO2	i	0.98
CN(C)C(=O)c1ccc2c(c1)nc(CN1CCN(C(=O)c3ccc4c(c3)OCO4)CC1)n2C	i	-0.61
COc1ccc(C2CC(=O)N(Cc3ccc(F)cc3)C(=O)C2)cc1OC	i	0.03
CCc1cccc(C)c1NC(=O)Nc1ccc2c(c1)N(C)C(=O)CS2	i	0.35
Cn1cc(C(=O)Nc2ccc(Cl)cc2)c2[nH]c(=O)n(-c3ccc(F)cc3)c(=O)c21	i	3.2
CCN1CCN(c2nccn3nc(-c4ccc(Cl)cc4)cc23)CC1	i	-3.1
O=S(=O)(CCc1noc(C2COc3ccccc3O2)n1)c1ccccc1 (stereo not given)	i	0.44
CCCc1cc(=O)n2[nH]c(CNc3ccc(Br)cc3)nc2n1	i	-0.15
O=C1C(=O)N(C2CCN(S(=O)(=O)c3ccc(F)cc3)CC2)CCN1Cc1ccccc1	i	0.29
Cc1ccc(CN2CCC(CNC(=O)c3nn(C)c4c3CS(=O)(=O)c3ccccc3-4)CC2)cc1	i	0.35
O=c1c2cc3c(cc2nc(SCc2nc(-c4ccccc4)no2)n1C1CCCC1)OCO3	i	0.58
Cc1cc2c(cc1S(=O)(=O)N1CCCC(C(=O)N3CCN(C4CCCCC4)CC3)C1)OC(C)C(=O)N2 (stereo not given)	i	-0.2
O=C(Nc1cccc(F)c1)C1CCN(C(=O)c2cccn2-c2cccnc2)CC1	i	-0.8
Cc1nc(-c2ccc(Cl)c(S(=O)(=O)N3CCCC(C(=O)Nc4ccc(C)c(Cl)c4)C3)c2)no1 (stereo not given)	i	-0.05
Cc1csc(NC(=O)CC(c2ccc(F)cc2)N2Cc3ccccc3C2=O)n1 (stereo not given)	i	-0.32
O=C(Nc1ccccc1)c1ccc(=O)n(Cc2ccccc2)c1	i	-1.2
CCOC(=O)CNC(=O)N1Cc2c(sc3c2CCCC3)-n2cccc2C1c1ccc(C(C)C)cc1 (stereo not given)	i	0.52
CC(Oc1ccc(O)cc1)(P(=O)(O)O)P(=O)(O)O	i	0.03
Cn1c(=O)c(=O)n(C)c2cc(NC(=O)c3sc4ccccc4c3Cl)ccc21	i	0.54
CC(C)NCc1ccc2c(c1)n(C)c(=O)n2C	i	0.4
CC(=O)Nc1cc(-c2nc(-c3cccc(-c4csc(C)n4)c3)no2)ccc1C	i	0.13
CCCCC/C=C\CC1OC1C/C=C\C/C=C\CCCC(=O)O (stereo not given)	i	-0.34
COc1ccc(OC)c(NC(=O)c2nnn(Cc3ccccc3C)c2N)c1	i	0.6
CCCCC[C@H](O)/C=C/[C@H]1[C@H](O)CC(=O)[C@H]1CCCCCCC(=O)O	i	-1.2
O=C(Nc1ccc2oc(-c3ccc(F)cc3)nc2c1)c1ccc2c(c1)OCCO2	i	0.88
O=C(Cn1ccc2c(SCc3ccccc3)nccc21)Nc1ccccc1	i	1.5
COc1cc2c(cc1OC)n(CC(=O)c1cc(C)ccc1C)c(=O)n1nc(CCn3nc(C)cc3C)nc21	i	-0.04
C=CCOc1cccc(-c2nn3c(-c4ccccn4)nnc3s2)c1	i	0.49
Cc1ccc(-c2noc(-c3ccccc3NC(=O)C3CC(=O)N(C(C)C)C3)n2)cc1 (stereo not given)	i	-0.04
Cc1ccc(S(=O)(=O)c2cnc(N3CCN(c4ccccc4F)CC3)nc2N)cc1C	i	0.62
CCOc1ccc(CN2C(=O)c3ccccc3CC2(C)C(=O)NCc2cccc(OC)c2)cc1 (stereo not given)	i	1.6
COCc1nnc(-c2ccc3c(c2)OCO3)o1	i	-0.56
Clc1ccc2nc(SCCOc3ccccc3)[nH]c2c1	i	0.4
Cc1cc(N2CCCC2)nc(N2CCN(C(=O)C3CCCC3)CC2)n1	i	0.43
CC(C)NC(=O)Cn1c(=O)n(CC2CCC(C(=O)NC(C)C)CC2)c(=O)c2sccc21 (stereo not given)	i	-0.28
O=C(Nc1cccc(Cl)c1)c1ccc(SCCN2CCCCC2)nc1	i	-4.7
O=C(NCCCn1c(-c2ccncc2)nc2cccnc21)Nc1cccc(Br)c1	i	-0.17

Three compounds out of the list, ordered by count of non-hydrogen atoms, low to high:
SMILES	Choline anaer gr	Choline anaer gr early
O=C(NCCCn1c(-c2ccncc2)nc2cccnc21)Nc1cccc(Br)c1	i	-0.17
Cc1ccc(S(=O)(=O)c2cnc(N3CCN(c4ccccc4F)CC3)nc2N)cc1C	i	0.62
CCOc1ccc(CN2C(=O)c3ccccc3CC2(C)C(=O)NCc2cccc(OC)c2)cc1 (stereo not given)	i	1.6

Additional structures.
SMILES	Choline anaer gr	Choline anaer gr early
O=C(CN1N=C(c2ccccc2)c2ccccc2S1(=O)=O)Nc1ccc(Cl)cc1	i	0.58
COCCNC(=O)c1ccc2c(=O)n(-c3ccc(F)cc3)c(SCC(=O)c3c(C)[nH]c4ccccc34)nc2c1	i	1.6
COC(=O)c1ccc2oc(=O)n(C)c2c1	i	-0.55
COc1ccccc1-c1nn2c(CSc3ccccc3)nnc2s1	i	1.2
COc1ccc(NC(=O)N2CCOc3ccc(COCc4ccc(F)cc4)cc3C2)c(OC)c1	i	0.84
Cc1ccc(C(=O)Nc2cccc(OCc3cc(=O)n4ccccc4n3)c2)cc1	i	1.5
CC1=C(C(=O)NCCN2CCC(Cc3ccccc3)CC2)C2(CCCCC2)OC1=O	i	0.26
CC(C)NC(=O)N1CCN(Cc2nc3cccnc3n2-c2ccc(F)cc2)CC1	i	0.23
Cc1cc(C)n2ncc(C(=O)NCC3CCCO3)c2n1 (stereo not given)	i	-0.23
CNCCCNCc1ccc(-c2ccc(F)c(Cl)c2)o1	i	-0.56
CCCC(=O)Nc1c(C)nc2sccn2c1=O	i	0.28
CCc1onc(C)c1C1CCCN1S(=O)(=O)c1c(C)noc1C (stereo not given)	i	-0.3
CCCCC(=O)NC(c1ccccc1OC)c1ccc2cccnc2c1O (stereo not given)	i	0.15

High-throughput results: PubChem BioAssay, ICCB-Longwood Screening Facility, Harvard Medical School
